# CtBP-E1A inh: blocks the CtBP interaction with E1A. AlphaScreen GST-E1A/His-CtBP binding, 1536-well; active compounds read low; control for the full effect not named in the record. activity change, % (test concentration not listed). 0.49% of 340,000 active; in the data active means activity change below about -65%; inconclusive means about -30% to -65%; inactive means above about -30%; further: on the % scale 0 is the no-effect control and ±100 the full control effect
#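 AlphaScreen with 125 nM GST-E1A and 125 nM His-CtBP (5X stocks) in Tris pH 8.0, 300 mM NaCl, BSA, Tween 20, TCEP. Compounds preincubated 2 h at 37 deg C, then glutathione donor/nickel acceptor beads added for 1 h at 37 deg C in dark.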
# ClpP mod: qHTS Assay for Activators of ClpP; ATP-dependent Clp protease proteolytic subunit (Bacillus subtilis (strain 168)), P80244; purified B. subtilis ClpP, FRET peptide cleavage, 20 min; Potency, µM (titrated, usually from 57.5 µM), for the others: top-dose activity change, negative = active; 1.9% of 340,000 active; AID 651965, 2013; active = well fitted falling curve with a large enough effect; inconclusive = small, poorly fitted or top-dose-only effect; inactive = no such curve, though single readings can be large or run the other way; further: potency means the concentration at half of the fitted maximal effect; the source files actives as falling curves though it sought activators and does not explain the sign; nearly all actives have a fitted effect of over 65% in size; many hits overshoot -100%
# Target sequence (P80244 whole entry, looked up): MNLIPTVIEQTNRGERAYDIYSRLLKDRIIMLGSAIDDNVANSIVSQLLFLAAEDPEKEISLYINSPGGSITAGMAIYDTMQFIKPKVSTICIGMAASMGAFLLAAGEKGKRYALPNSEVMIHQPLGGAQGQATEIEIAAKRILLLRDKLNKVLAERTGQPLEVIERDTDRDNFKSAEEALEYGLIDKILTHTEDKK
#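 Buffer: 100 mM Tris/HCl pH8, 100 mM KCl, 0.05% low protease BSA, 2.5% glycerol, 0.01% Tween-20. ClpP 10 microg/mL final; 20 min RT; delta FRET normalized to ADEP and DMSO controls.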
# gsp antag: antagonizes gsp, the McCune-Albright syndrome mutation | gsp-mutant cells, cAMP HTRF, 30 min; control for the full effect not named in the record | Potency, µM (series often up to 76.9 µM), for the others: at the top dose activity change, negative = inhibition, hits mostly inhibitors | 0.4% of 340,000 active | AID 624288; active = falling curve of any shape with a large fitted effect; inconclusive = falling curve, mostly with a smaller effect; inactive = flat or rising curve; cell line not stated here;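 further: intracellular cAMP measured with PDE inhibitor Ro 20-1724 present during compound exposure; potency means the concentration at half of the fitted maximal effect; on the % scale 0 is the no-effect control and ±100 the full control effect; nearly all actives have a fitted effect of over 65% in size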
#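 G418-selected cells were plated in DMEM/10% FBS for 16-24 h at 37C, then treated with compounds plus the PDE inhibitor […] (300 uM solution added) for 30 min at 37C. Intracellular cAMP was measured by HTRF after 30 min lysis at room temperature.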
# TRPV1 PAM: potentiators of human vanilloid receptor 1 (TRPV1); TRPV1-expressing cells, Fluo-8 calcium influx, capsaicin EC20 potentiation; host cell line not named in the record; control for the full effect not named in the record; potentiation, % at 8.33 µM; 0.02% of 320,000 active; AID 540277; active means potentiation above 80%; inconclusive means 30% to 80%; inactive means below 30%; further: 0% is about no effect
# Target sequence (Q8NER1 whole entry, looked up): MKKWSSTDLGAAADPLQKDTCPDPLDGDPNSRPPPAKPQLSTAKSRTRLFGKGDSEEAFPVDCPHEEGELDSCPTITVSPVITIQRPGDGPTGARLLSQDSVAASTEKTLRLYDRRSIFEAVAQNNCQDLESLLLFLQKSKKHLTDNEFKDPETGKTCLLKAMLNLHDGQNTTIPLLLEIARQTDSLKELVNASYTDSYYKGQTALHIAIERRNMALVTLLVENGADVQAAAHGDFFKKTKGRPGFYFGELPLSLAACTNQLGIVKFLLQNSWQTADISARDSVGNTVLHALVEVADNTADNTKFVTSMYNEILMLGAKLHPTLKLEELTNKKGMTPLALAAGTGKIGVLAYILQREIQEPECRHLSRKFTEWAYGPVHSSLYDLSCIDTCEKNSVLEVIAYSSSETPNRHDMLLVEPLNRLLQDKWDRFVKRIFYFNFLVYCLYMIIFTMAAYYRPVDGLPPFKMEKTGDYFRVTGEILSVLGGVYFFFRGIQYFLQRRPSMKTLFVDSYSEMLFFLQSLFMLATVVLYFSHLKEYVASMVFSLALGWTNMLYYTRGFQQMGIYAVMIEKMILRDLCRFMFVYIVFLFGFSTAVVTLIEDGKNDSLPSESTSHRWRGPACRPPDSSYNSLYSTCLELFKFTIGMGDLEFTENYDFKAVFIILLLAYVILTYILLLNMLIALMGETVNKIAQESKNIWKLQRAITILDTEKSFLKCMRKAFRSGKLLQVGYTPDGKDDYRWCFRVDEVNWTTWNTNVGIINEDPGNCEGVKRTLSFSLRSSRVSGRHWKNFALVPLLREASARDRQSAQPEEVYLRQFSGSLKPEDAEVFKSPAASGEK
#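 TRPV1-expressing cells were cultured overnight at 35.5C and loaded with Fluo-8 calcium dye for 40 to 90 min at room temperature. After a 10 s baseline, compound was added and calcium influx was read kinetically for 3 min (ex 480/em 520 nm).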
# Sfp inh: inhibitors of Bacillus subtilis Sfp phosphopantetheinyl transferase. Q9F4F7. Biochemical Sfp PPTase activity, qHTS. Potency, µM, without a hit: max response, negative = inhibition, most hits filed as inhibitors. 3.5% of 310,000 active; active means well fitted inhibition curve with a large enough effect; inconclusive means small, poorly fitted or top-dose-only effect, or another doubt; inactive means no such curve, though single readings can be large or run the other way;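 further: the enzyme is Sfp with the accession as filed and its product quenches rhodamine fluorescence; potency means the concentration at half of the fitted maximal effect; 0% = enzyme reaction without inhibitor and -100% = no enzyme wells; top concentration of the series not given in the record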
#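 Compounds were incubated with enzyme (final 15 nM) for 15 min at room temperature before substrate addition started the reaction. Fluorescence at 525 nm excitation, 598 nm emission was recorded immediately and after 30 minutes.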
# Menin-MLL FL inh: displaces fluorescein MLL peptide from human menin; Fluorescence polarization, fluorescein-MLL peptide displacement from menin; FP activity change, % at 61.4 µM; 290,000 tested, under 10 active; inconclusive = falling polarisation curve, or a change in total fluorescence; inactive = total fluorescence flat and polarisation flat or rising; no compound was filed as active; the % refers to the polarisation; negative = inhibition;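 further: % of control where 0% means no effect; inhibitors lower the polarisation; unlabelled MLL peptide was the positive control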
# gsp ag: agonists of gsp mutant (McCune-Albright syndrome). 0.13% of 340,000 active. gsp mutant cells, cAMP HTRF, 30 min; control for the full effect not named in the record. AID 624287. Potency, µM (top dose mostly 76.9 µM), for inactives: at the top dose activation (cAMP increase), usual class: activators; active = well fitted activation curve with a large enough effect; inconclusive = small, poorly fitted or top-dose-only effect, or another doubt; inactive = no such curve, though single readings can be large or run the other way; cell line not stated here;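 further: phosphodiesterase inhibitor Ro 20-1724 added with compounds to block cAMP breakdown; potency means the concentration at half of the fitted maximal effect; nearly all actives have a fitted effect of over 60% in size; about a fifth of the inactives were tested at one dose only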
#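 Cells stably selected in G418 were plated at 2000/well, grown 16-24 hr, then given compounds in DMSO with the PDE inhibitor […] (300 uM solution added) for 30 min at 37C; cAMP was read by HTRF.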
# * = called active by the depositor; ? = inconclusive; nt = no result given; & = joins results of further samples; [ ] = dose if it differs, or a comment.
SMILES,CtBP-E1A inh,ClpP mod,gsp antag,TRPV1 PAM,Sfp inh,Menin-MLL FL inh,gsp ag
Cc1ccccc1NS(=O)(=O)c1ccc(C(=O)N2CCN(c3ccccn3)CC2)cc1,-5.2,nt,-32.7%,1.3,11.1%,-2.2,0.6%
Cc1cc2c(ncn2C)c(NS(=O)(=O)c2ccc(Cl)cc2)c1C,3.4,nt,-1.5%,2.4,19.1%,-1.1,0.4%
CCOC(=O)c1sc(NC(=O)C(CC)Sc2nc3ccccc3[nH]2)nc1C (stereo not given),-1.9,0.9%,?,nt,nt,nt,-39.4%[inhibitor]
Cc1ccc(C(=O)O)cc1-c1ccc(C=C2C(=O)c3ccccc3C2=O)o1,nt,nt,-5.1%,7.6,-4.1%,?,-3.2%[15.4 µM]
Fc1ccc(-c2nnn(Cc3ccccc3Cl)n2)cc1,-1.8,-0.6%,7.3%,9.8,4.5%,7.5,-7.9%[15.4 µM]
NNC(=O)C1CC1c1ccccc1 (stereo not given),-19.2,-2.4%,-12.5%,-17.1,13.4%,0.5,-13.7%
CN(C)CCCN(C(=O)COc1ccccc1)c1nc2ccc(F)cc2s1,3.4,-1.2%,6.7%,-8.1,-10.1%,2.7,2.1%
Cn1c(N)c(C(=O)COC(=O)/C=C/c2cccc(F)c2)c(=O)n(C)c1=O,-1.5,0.5%,3.5%,3.9,nt,nt,?
COc1ccccc1CNc1ncnc2cc(Cl)ccc12,6.9,0.8%,7.5%,-0.2,11.2%,-0.4,-5.6%[15.4 µM]
CCOc1ccc(CCNC(=O)c2ccc3c(=O)[nH]c4c(C(=O)NC(C)C)sc(=S)n4c3c2)cc1,nt,1.2%,?,-18.1,-3.6%,nt,10.7%
O=C(c1ccccc1O)N1N=C(c2ccccc2)CC1(O)C(F)(F)F (stereo not given),-4.0,-1.3%,1.4%,2.0,4.6%,-2.4,-94.0%[inhibitor]
O=C(NC1CCCCCCC1)C1=COCCO1,3.2,0.4%,4.0%,-1.4,6.3%,0.5,-20.3%

# Part of the list above, showing only Menin-MLL FL inh.
structure | Menin-MLL FL inh
Cc1ccccc1NS(=O)(=O)c1ccc(C(=O)N2CCN(c3ccccn3)CC2)cc1 | -2.2
COc1ccccc1CNc1ncnc2cc(Cl)ccc12 | -0.4

# Following part.
SMILES,CtBP-E1A inh,ClpP mod,gsp antag,TRPV1 PAM,Sfp inh,Menin-MLL FL inh,gsp ag
CCCC(=O)Nc1cc(OC)c(NC(=S)Nc2ccc(CC)cc2)cc1OC,-10.9,nt,-16.1%,nt,nt,nt,-14.3%
C[C@]12C=C[C@H](O)CC1=CCC1C2CC[C@@]2(C)C1CCC21OCCO1 (stereo not given in full),-0.7,nt,-1.4%,nt,nt,nt,26.6%
CC(C)[C@H](NC(=O)NCc1cccs1)C(=O)O,-2.0,0.4%,-11.3%,13.6,18.9%,-0.7,-26.3%
O=C(COc1ccccc1O)c1cccs1,0.8,-0.2%,17.5%,20.0,3.9%,-0.5,8.5%
CCCCN(C)C(=O)CCC(=O)Nc1ccc2nc(N3CCOCC3)cc(C)c2c1,-7.6,7.94µM*,-16.2%,13.8,-24.3%,-4.9,6.6%
CCn1cc(C(=O)OCC(=O)Nc2cccc(C)c2)c(=O)c2ccc(C)nc21,-0.4,nt,5.9%,4.9,3.9%,0.0,?
COc1ccc(CCC(=O)N2CCN(c3ccc(OC)cc3)CC2)cc1,-3.8,-4.1%,2.1%,-2.6,9.1%,6.5,?
COc1ccc(NC(=O)CCNC(=O)N2CC(=O)Nc3ccccc32)cc1OC,-3.6,0.4%,nt,nt,nt,nt,6.0%
Cc1ccccc1NC(=O)c1ccc2nccnc2c1,-1.3,nt,10.0%,0.6,15.5%,6.5,?
CCOC(=O)CSc1nc(C)nc2c1sc1nc(C)c(C(C)=O)c(-c3ccc(OC)cc3)c12,0.2,-3.7%,4.9%,11.8,-8.8%,0.6,-4.1%[15.4 µM]
COC(=O)CSc1c(-c2ccccc2)c2cc(Cl)ccc2[nH]c1=O,-0.8,-5.5%,-5.2%,17.4,-2.4%,5.7,-20.8%
COCCCNc1nc2c(c(=O)[nH]c(=O)n2C)n1CCCc1ccccc1,3.6,-1.3%,13.4%,0.4,20.1%,2.2,0.4%
O=C(O)c1ccccc1-c1ccccc1C(=O)Nc1cccc(-c2nc3ccccc3o2)c1,-26.9,nt,-17.3%,1.2,16.5%,-3.1,-35.4%
CN(CCC1CCCCO1)C(=O)CCc1nnc(CCc2ccccc2)o1 (stereo not given),-3.5,-2.4%,4.8%,3.6,4.8%,nt,-12.4%[15.4 µM]
CCc1ccc(OCCCCCn2ccnc2)cc1,6.8,0.9%,11.4%,-6.9,-24.3%,-6.8,0.3%[15.4 µM]
O=C(CSC1c2ccccc2C(=O)N1c1ccccc1)N1CCOCC1 (stereo not given),4.6,-1.5%,8.3%,-6.6,7.4%,0.1,?
Cc1ccccc1OCc1nnc(SCC(=O)Nc2ccc3nc(SCC(=O)Nc4ccccc4)sc3c2)n1C,-2.3,-4.0%,-12.4%,13.9,7.7%,2.1,-8.7%
COc1ccc2oc3cc(C)[n+]([O-])c(-c4ccc(C)cc4)c3c2c1,-7.4,?,1.7%,-12.8,-8.9%,6.6,26.9%
COc1ccc(N2C(=O)C(F)(F)C2c2cccc(F)c2)cc1 (stereo not given),nt,-2.1%,-5.9%,-4.2,11.5%,-0.9,-14.5%
Cc1cc(C(=O)N/N=C/c2ccc(-c3cccc([N+](=O)[O-])c3)o2)n[nH]1,-24.8,1.8%,-1.4%,-4.4,22.4%,-1.5,-18.4%
CCC(C)NC(=O)CS(=O)Cc1nc(-c2ccccc2C)oc1C (stereo not given),21.6,-4.9%,11.2%,nt,8.0%,4.4,-47.2%[inhibitor]
COc1cccc(C2=CC(c3ccc(OC)c(OC)c3OC)n3nnnc3N2)c1 (stereo not given),-0.2,2.3%,-9.0%,22.7,11.4%,0.2,-0.2%
Cc1cccc(CN2CCC(CNC(=O)CCNC(=O)Cn3ccc4ccccc4c3=O)CC2)c1,5.3,-13.3%,16.0%,nt,1.6%,6.8,-26.5%
S=c1[nH]nc(COc2ccc(Cl)cc2)n1-c1ccccc1,3.9,nt,-11.1%,17.9,13.0%,-0.2,-41.6%[inhibitor]
O=C(C1=C(O)C(=O)N(Cc2ccco2)C1c1cccc(O)c1)c1ccco1 (stereo not given),-1.1,-6.6%,21.8%,2.9,-0.8%,-3.7,4.3%[15.4 µM]
Cc1ccc2nc(Cl)c(C3CC(c4cccs4)=NN3C(=O)CCCC(=O)O)cc2c1 (stereo not given),6.9,nt,-15.3%,3.4,-13.3%,1.9,3.7%
Cc1ccc(C(=O)COC(=O)CNS(=O)(=O)c2ccc(C)cc2)cc1,13.5,12.9%,-14.1%,-0.7,3.6%,1.1,7.5%
CC(=O)c1ccc(N/N=C(/C(N)=O)C2=NC(C)(C)Cc3ccccc32)cc1,-2.9,-28.0%,?,-4.1,-9.3%,-1.7,-4.9%
COC(=O)[C@@H](CC(C)C)N(Cc1ccccc1)S(=O)(=O)N(Cc1ccccc1)[C@@H](CC(C)C)C(=O)OC,-7.8,-4.1%&-3.9%,0.4%,nt,nt,nt,?
COc1cccc(C(=O)NCCCNC(=O)c2ccccn2)c1,0.8,nt,5.0%,-8.6,10.2%,-0.4,0.4%
O=C(/C=C/c1cc(Br)ccc1O)c1ccco1,1.5,-1.1%,2.4%,8.5,?,5.7,16.8%
COc1cccc(NC(=O)CSCc2n[nH]c(=O)[nH]2)c1,-2.0,-0.7%,10.7%,6.4,20.9%,0.5,?
CC(=O)N1CCc2cc(S(=O)(=O)NC(CC(C)C)C(=O)N3CCCC3)ccc21 (stereo not given),1.9,-1.2%,5.0%,-10.7,8.3%,-0.1,?
Cc1cccc2cc(C#N)c(NCCNC(=O)NC3CCCCC3)nc12,4.3,?,10.2%,11.5,3.9%,7.1,?
Nc1c(C(=O)Nn2cnnc2)cc([N+](=O)[O-])cc1[N+](=O)[O-],nt,nt,nt,0.3,21.8%,5.3,nt
COc1ccccc1N(CC(O)CN1C(C)CCCC1C)S(=O)(=O)c1ccccc1 (stereo not given),0.0,-0.1%,14.2%,-1.2,-7.3%,1.8,-10.6%[15.4 µM]
CN(C)S(=O)(=O)N(CC(=O)N1CCOCC1)c1ccccc1,-8.8,-2.3%,4.3%,5.6,-6.6%,0.5,-45.1%
COc1ccc(-n2nnnc2SCC(=O)Nc2nnc(C)s2)cc1,-3.2,0.2%,-2.8%,-1.6,?,1.6,-12.8%
CCN(CC)C(=O)CSc1nc2ccccc2c(=O)n1CCC(=O)N1CCN(c2ccccc2)CC1,-3.6,0.2%,-9.3%,9.4,5.7%,-2.8,-3.9%[15.4 µM]
Cc1ccc(S(=O)(=O)N2CCN(C(=O)C3CCCC3)CC2)cc1C,6.5,nt,-1.3%,-4.6,7.2%,-3.0,-16.6%
COc1ccc(NS(=O)(=O)c2cc(NC(=O)c3ccco3)ccc2N2CCCC2)cc1,-2.3,-1.8%,8.1%,-11.6,-11.5%,2.0,-35.9%[inhibitor]
CCN(CC)S(=O)(=O)c1cccc(C(=O)OCC(=O)N2CC(=O)Nc3ccccc32)c1,-9.9,-2.1%,-7.0%,8.0,5.7%,2.8,47.8%
CC(=O)Nc1ccc(S(=O)(=O)NCCC(=O)N2CCC(Cc3ccccc3)CC2)cc1,-10.0,11.2µM*,-5.8%,2.7,nt,nt,3.5%
CCCc1cc(=O)[nH]c(SCC(N)=O)n1,0.3,0.1%,3.3%,7.9,6.2%,-0.5,-1.3%
CCc1ccc(NC(=O)C2C3C=CC(C4CC34)C2C(=O)O)cc1 (stereo not given),1.5,-1.5%,8.9%,-3.9,-28.6%,-2.8,1.8%
CC(C)Oc1ccc(S(=O)(=O)N2CCCCC2)cc1NC(=O)CN1CCCC1c1cccs1 (stereo not given),0.0,0.0%,-22.2%,5.8,nt,nt,-6.4%
O=C(NCC1COc2ccccc2O1)c1cc(S(=O)(=O)N2CCOCC2)ccc1F (stereo not given),-1.2,nt,0.8%,-13.3,nt,nt,6.3%[15.4 µM]

# Screens: PubChem, National Center for Advancing Translational Sciences (NCATS)

# This is a random part of the collection; about 5.3% have a hit in one of these screens.
